# Assay outcomes from PubChem.
# WNV NS2B-NS3 inh – inhibitors of WNV NS2B-NS3 protease, primary screen, biochemical, fluorogenic substrate; Genome polyprotein (West Nile virus), P06935; fluorogenic substrate Ex360/Em465; active compounds read low; z-score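 (tested at a level between 10 and 100 µM)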; actives 0.18% (n = 65,000); AID 577, 2007;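 active = z-score at -3 or under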;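 note: score is relative to mean and spread of the compound wells of a plate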
# Target sequence (P06935 1371-1501 limits assumed): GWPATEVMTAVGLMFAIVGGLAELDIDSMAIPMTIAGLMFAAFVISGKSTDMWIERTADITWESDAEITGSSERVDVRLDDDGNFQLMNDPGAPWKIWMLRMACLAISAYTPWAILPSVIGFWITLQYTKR
# Target sequence (P06935 1502-1679 limits assumed): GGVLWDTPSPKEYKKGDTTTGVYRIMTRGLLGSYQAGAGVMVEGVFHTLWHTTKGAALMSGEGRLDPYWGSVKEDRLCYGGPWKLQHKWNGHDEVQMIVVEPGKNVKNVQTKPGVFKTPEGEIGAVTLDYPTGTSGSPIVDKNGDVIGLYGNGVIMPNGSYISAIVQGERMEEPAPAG
# MT1-MMP reporter – inhibitors of MT1-MMP promoter transcription, cell-based, luciferase reporter, luminescence (AID 618) | MT1-MMP promoter luciferase reporter cells, luminescence | calls from a first round at 10 µM; hits with a dose series show EC50 in µM | actives 0.62% (n = 87,000);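 active = over half of the reporter light lost at 10 µM or EC50 under 50 µM; inactive = the rest and hits that failed the dose series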;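 note: actives suppress MT1-MMP promoter-driven transcription so potencies describe inhibitors; HT1080 fibrosarcoma cells; overnight exposure; toxic or luciferase-blocking compounds were not removed from the actives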
# Hsc70 – Hsc70 inhibitors, probe displacement, primary screen, biochemical, fluorescence polarization (AID 568); displacement, % at 20 µM, or IC50 in µM where a hit was titrated; 83,000 tested, under 10 active; Hsc70 fluorescence polarization, probe displacement; higher % means a stronger effect; strong numbers were not always called active; Heat shock cognate 71 kDa protein (Homo sapiens);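 active = displacement above 50% without optical interference and an IC50 on retest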;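 note: ATPase domain with a fluorescein-tagged ATP probe; 0% = vehicle and 100% = excess ADP; read after one hour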
# The depositor's hits bear a star; i = inactive; . = no result given.
SMILES,WNV NS2B-NS3 inh,MT1-MMP reporter,Hsc70
CCOC(=O)N1CCN(C(=O)c2cc(C)c3c(C)nn(-c4ccccc4)c3n2)CC1,0.54,i,-3.0%
CCOC(=O)c1cnn(CCOC(=O)C(C)(C)C)c1NC(=O)C(C)(C)C,0.25,i,-3.0%
O=C(Nc1cc(C(=O)N2CCCC2)ccc1N1CCCC1)C1CC1,.,i,0.7%
CC(C)NC(=O)CC(c1ccccc1)c1cc(Br)ccc1O (stereo unspecified),.,i,-1.9%
Cc1cc(N2CCN(C(=O)c3ccco3)CC2)n2nc(-c3cccc(Cl)c3)cc2n1,0.28,i,-9.2%
CCCCCCC(=O)N(O)C1CC(=O)N(c2ccc(C)cc2)C1=O (stereo unspecified),.,i,4.4%
CCOc1cc(-n2nc(C)c(C#N)c2N)nc(SC)n1,.,i,2.0%
COc1cc(NC(=O)c2ccc(COc3ccccc3Br)o2)cc(OC)c1OC,-2.08,i,0.8%
Cc1ccc2nc(SCC(=O)NC(=O)NCc3ccco3)[nH]c2c1,0.99,i,3.2%
COc1ccc(NC(=O)C(C)N2c3cccc4cccc(c34)S2(=O)=O)cc1 (stereo unspecified),.,i,-3.8%
Cc1cc(C)n(C(=O)CCN2C(=O)c3ccccc3C2=O)n1,0.17,i,3.2%
O=C(CCS(=O)(=O)c1ccc(Br)s1)NCc1ccc2c(c1)OCO2,-0.51,i,0.6%
COC(=O)c1cc(Br)c(=O)n(CCN2CCOCC2)c1,-0.71,i,1.9%
CCn1cc(C(=O)N2CCCc3ccccc32)c2cc(OC)c(OC)cc2c1=O,0.37,i,-0.1%
Fc1ccc2nc(-c3ccccc3)nc(SCc3nnc(-c4ccccc4)o3)c2c1,0.05,i,0.8%
Cc1nc(-c2ccc(C(=O)N3CCOCC3)cc2)cs1,-0.2,i,1.6%
Cc1nnc(SC(C)C(=O)Nc2ccc(S(=O)(=O)NC3CCCCC3)cc2)s1 (stereo unspecified),.,i,-0.6%
CCOC(=O)c1ccc2nc(NC(=O)c3ccco3)sc2c1,-1.07,i,3.2%
CC(=O)Nc1ccc(NC(=O)C(F)(F)F)cc1,.,i,4.6%
CCC(C(=O)OC)n1cnc2c(nnn2-c2ccc(OC)cc2)c1=O (stereo unspecified),0.4,i,-0.9%
c1ccc2oc(NC3=NCN(CC4CCCO4)CN3)nc2c1 (stereo unspecified),0.92,i,5.4%
CCOC(=O)c1cc(-c2ccc(F)cc2)n(CC(=O)N2CCCC2)c1C,0.86,i,4.7%
Cc1ccc(-n2c(C)c3c(C)nnc(C)c3c2C)cc1C,.,i,-5.2%
COC(=O)C1CCN(c2nc3ccccc3nc2C(C#N)C(=O)OCC(C)C)CC1 (stereo unspecified),-0.59,i,18.2%
N#Cc1cnn(-c2nc(SCc3ccccc3)nc3sc4c(c23)CCCC4)c1N,2.36,i,2.2%

# Among those listed so far, these contain a furan ring, fused or not.
SMILES,WNV NS2B-NS3 inh,MT1-MMP reporter,Hsc70
Cc1cc(N2CCN(C(=O)c3ccco3)CC2)n2nc(-c3cccc(Cl)c3)cc2n1,0.28,i,-9.2%
COc1cc(NC(=O)c2ccc(COc3ccccc3Br)o2)cc(OC)c1OC,-2.08,i,0.8%
Cc1ccc2nc(SCC(=O)NC(=O)NCc3ccco3)[nH]c2c1,0.99,i,3.2%
CCOC(=O)c1ccc2nc(NC(=O)c3ccco3)sc2c1,-1.07,i,3.2%

# Taken from the listing, 4 compounds:
SMILES,WNV NS2B-NS3 inh,MT1-MMP reporter,Hsc70
CCOC(=O)c1cc(-c2ccc(F)cc2)n(CC(=O)N2CCCC2)c1C,0.86,i,4.7%
Cc1ccc(-n2c(C)c3c(C)nnc(C)c3c2C)cc1C,.,i,-5.2%
COC(=O)C1CCN(c2nc3ccccc3nc2C(C#N)C(=O)OCC(C)C)CC1 (stereo unspecified),-0.59,i,18.2%
N#Cc1cnn(-c2nc(SCc3ccccc3)nc3sc4c(c23)CCCC4)c1N,2.36,i,2.2%

# Next results:
SMILES,WNV NS2B-NS3 inh,MT1-MMP reporter,Hsc70
CCOC(=O)Cn1c(=O)c(-c2ccccc2N)nc2ccccc21,-0.78,i,4.4%
COCCNC(=O)CN(Cc1ccc2c(c1)OCO2)C(=O)CCC(=O)Nc1nccs1,-0.52,i,1.2%
O=C(NCc1cccs1)c1ccc2c(c1)OCCO2,-0.79,i,6.9%
Cc1cc(=O)[nH]c(SCC(=O)N2CCc3ccccc3C2)n1,.,i,-2.3%
CCn1c(SCC(=O)Nc2cc(OC)c(OC)c(OC)c2)nnc1-c1cccs1,1.63,i,12.3%
C=CCc1cccc(/C=N/c2ncccc2O)c1O,-0.52,i,12.4%
Cc1nn(C(C)CC(=O)O)c(C)c1Br (stereo unspecified),.,i,-0.4%
CCOC(=O)c1cnc2nc(C(F)(F)F)[nH]n2c1=O,.,i,3.5%
Cc1cc(C(F)F)nn1CC(=O)NCc1ccc(Cl)cc1Cl,.,i,0.6%
O=C(c1ccco1)N1CCN(S(=O)(=O)c2ccc(F)cc2)CC1,0.04,i,2.7%
C=CCOc1cccc(C2/C(=C(/O)c3ccccc3)C(=O)C(=O)N2CCN2CCOCC2)c1 (stereo unspecified),-0.05,i,-2.5%
Cc1ccccc1-c1nc2sc3c(c2c(=O)n1N)CCCC3,.,i,1.6%
Cc1sc2ncnc(SCc3ccco3)c2c1C,0.38,i,-9.4%
C1=Nc2c(NCc3ccccc3)ncnc2Oc2ccccc21,-0.26,i,-2.8%
CCOc1ccc(-n2c(SCC(=O)NCc3ccco3)nc3c(c2=O)SCC3)cc1,-0.74,i,-5.2%
CCC(NC(=O)NC1=NCCS1)(C(F)(F)F)C(F)(F)F,-0.28,i,0.7%
COc1nc(-c2ccccc2)ccc1-c1noc(-c2ccccc2F)n1,1.98,i,0.5%
S=c1[nH]nc(COc2ccc(Cl)cc2)n1C1CCCCC1,.,i,-3.7%
COC(=O)C1C(=O)c2c([nH]c(C(=O)OCCSC)c2C)CC1C (stereo unspecified),0.85,i,-1.8%
CCOC(=O)Nc1ccc(NC(=O)c2c(OC)cccc2OC)cc1,0.07,i,0.0%
CCOc1ccc(OCCN(C)Cc2ccccc2)cc1,.,i,0.7%
CCSc1nnc(-c2ccc(S(=O)(=O)N3CCOCC3)cc2)n1CC1CCCO1 (stereo unspecified),0.76,i,-2.1%
CC(O)Cn1ccccc1=N (stereo unspecified),1.35,i,-2.9%
c1ccc(CNCc2ccc3c(c2)OCO3)nc1,.,i,-0.4%
CC(C)OP(C)(=O)CN1CCN(CP(C)(=O)OC(C)C)CC1 (stereo unspecified),-0.46,i,2.2%

# (list continues)
SMILES,WNV NS2B-NS3 inh,MT1-MMP reporter,Hsc70
Cc1ccc(-n2c(=O)cc(N3CCCCCC3)[nH]c2=O)cc1,-1.15,i,0.5%
Cc1ccc(F)cc1NC(=O)c1c(-c2ccccc2)noc1C,0.11,i,1.5%
O=C(OCc1ccc(F)cc1Cl)c1ccccn1,0.4,i,-8.6%
CC1=Nn2c(nnc2-c2ccccc2F)SC1,-0.52,i,1.5%
COc1ccc(-n2nnc3c(SCC(=O)NCC4CCCO4)ncnc32)cc1 (stereo unspecified),-1.07,i,-10.3%
C=C(C)c1cccc(C(C)(C)NC(=O)Nc2ccc3[nH]c(=O)[nH]c3c2)c1,-0.86,i,-1.6%
CCCCCCc1nc2ccccc2c(=O)n1N,0.32,i,2.7%
CCCS(=O)(=O)N1CCN(S(=O)(=O)c2ccc(F)cc2)CC1,-1.73,i,0.1%
COc1ccccc1C=NC(CO)C(O)c1ccc([N+](=O)[O-])cc1 (stereo unspecified),.,i,4.4%
c1ccc(CSc2nnc(-c3cccnc3)o2)cc1,.,i,-4.7%
Nc1nc2n(n1)C(c1ccco1)CC(c1ccc(Cl)cc1Cl)N2 (stereo unspecified),-0.53,i,4.7%
Cc1ccc(-n2c(=O)[nH]cc(C(=O)N3CCc4ccccc43)c2=O)cc1,1.22,i,1.0%
Cc1nc(=O)c(-c2ccccc2)c(C)n1-c1ccccc1O,0.48,i,0.2%
COC(=O)C1=C(N)Oc2cc(C)oc(=O)c2C1c1cccnc1 (stereo unspecified),1.1,i,3.0%
COCC(=O)Nc1ccccc1C(=O)NC(C)C,1.24,i,-1.2%
COc1ccc(N2CCN(C(=O)CN(C)S(=O)(=O)c3cnc[nH]3)CC2)cc1,.,i,1.5%
CNc1oc(Cc2ccccc2)nc1S(=O)(=O)c1ccccc1,0.83,i,-0.5%
O=C1CC(N2CCN(c3cccc(C(F)(F)F)c3)CC2)C(=O)N1c1ccccc1F (stereo unspecified),-0.76,i,-3.2%
CCOC(=O)c1cccc(N2C(N)=NC(N)=NC2(C)C)c1,0.42,i,5.6%
CC1CN(Cc2ccc(C#N)cc2Cl)CC(C)O1 (stereo unspecified),0.83,i,6.8%
Cc1cccc(N2CCN(C(=O)C3CCN(S(=O)(=O)c4cnc[nH]4)CC3)CC2)c1C,0.21,i,3.9%
CCS(=O)(=O)N1CCN(Cc2ccccc2OC)CC1,0.16,i,2.8%
O=C(CCSCCC(=O)NCc1cccs1)NCc1cccs1,-0.96,i,1.5%
CC(=O)CCc1c(C)c2cc(C)ccc2[nH]c1=O,-1.42,i,-2.6%
CCn1c(SC(=O)NC2CCCCC2)nnc1-c1cccs1,-0.09,i,-0.2%

# Carrying on.
SMILES,WNV NS2B-NS3 inh,MT1-MMP reporter,Hsc70
CCN(CC)C(=O)C(Sc1ccccc1)c1ccccc1 (stereo unspecified),.,i,-1.5%
O=C(OCC(=O)N1CCN(C(=O)c2ccco2)CC1)c1ccccc1OCc1ccc(Cl)cc1,-1.41,i,1.3%
O=C(c1ccc(S(=O)(=O)N2CCCCC2)cc1)N1CCN=C1SCc1cccnc1,-0.35,i,-2.9%
O=C(Oc1c(Cl)cc(Cl)c2cccnc12)c1cccs1,.,i,-0.4%
Cc1ccc(-n2c3c(cc(C(=O)NC4CCSC4=O)c2=O)C(=O)CCC3)cc1 (stereo unspecified),-0.2,i,-0.6%
CCOC(=O)CNC(=O)c1c(C)nn(-c2ccccc2)c1Cl,0.8,i,-3.6%
O=C(CSc1nc(-c2ccccc2)cs1)Nc1nccs1,0.58,i,7.2%
Cc1cc(Nc2ccc(Cl)cc2)n2nnnc2n1,-0.82,i,-2.7%
COc1nc(Nc2ccc(OC)c(Cl)c2)nc(OC)n1,-0.29,i,4.7%
CCN(Cc1ccncc1)C(=O)c1cccc(S(=O)(=O)N2CCOCC2)c1,1.8,i,-3.6%
COc1ccc(N2CCC(CNS(=O)(=O)c3cccc(C(F)(F)F)c3)C2)cc1 (stereo unspecified),-0.31,i,-7.3%
C=CCN1C(=O)CN=C1Nc1cccc(C)c1,-0.73,i,-11.5%
CC1=C2C(CCS2(=O)=O)CC2(C1)C(=O)OC(C)(C)OC2=O (stereo unspecified),-0.7,i,-2.1%
C=CCN(C(=O)CCC(=O)O)C1CC(=O)N(c2ccc(OC)cc2)C1=O (stereo unspecified),1.24,i,8.3%
Cc1ccc(OCCCC(=O)N2CCOCC2)cc1,.,i,-0.2%
Cc1nnc(SC(C)C(=O)Nc2ccc(S(=O)(=O)N3CCCCCC3)cc2)s1 (stereo unspecified),-0.5,i,1.9%
CCOC(=O)c1c(C)[nH]c(C=Nc2ccccc2)c1O,0.32,i,-1.1%
COc1ccc(Cc2nnc(SCC(=O)c3ccc(OC)cc3)o2)cc1,0.05,i,3.8%
c1ccc2ncc(-n3cnnn3)cc2c1,-0.17,i,-5.7%
CC1(C)CC(=O)C2=C(C1)N(Cc1ccccc1)C(=O)C2(NC(=O)C(C)(C)C)C(F)(F)F (stereo unspecified),.,i,2.5%
Fc1ccccc1CSc1nc2ccccc2[nH]1,.,i,1.7%
O=C(Nc1cccc(C(=O)N2CCCCCC2)c1)c1ccco1,-0.28,i,4.2%
Cc1nn(Cc2ccccc2Cl)c(C)c1C(=O)N1CCN(c2ccccc2)CC1,0.22,i,-2.9%
CN=c1sc(C(=O)Nc2cccc(Cl)c2)cc(=O)n1C,-0.02,i,-3.0%
CS(=O)(=O)Nc1ccccc1C(=O)N1CCN(c2ccccc2)CC1,.,i,-3.8%

# Next part:
SMILES,WNV NS2B-NS3 inh,MT1-MMP reporter,Hsc70
Cc1cc(C)nc(SCC(=O)NCc2ccco2)n1,1.27,i,4.7%
Cc1cc(C)n(-c2ccc(N3CCOCC3)nn2)n1,0.38,i,-1.3%
CCn1c(=O)cc(OCC(=O)NC2CCCCC2)c2ccccc21,-0.58,i,5.3%
Cc1nnc(NC(=O)CSc2nnc(-c3ccoc3C)n2CC(C)C)s1,-0.26,i,-0.1%
CCOc1c(OC)cccc1C1CC(=O)Nc2cc(OC)c(OC)cc21 (stereo unspecified),0.87,i,3.0%
COc1ccc(C(=O)Cn2c3ccccc3n3nc(CCC(=O)O)c(=O)nc23)cc1OC,.,i,3.2%
COc1ccc(S(=O)(=O)N2CCN(C(=O)c3cccc(Cl)c3)CC2)cc1,-0.47,i,10.7%
CCCCSc1nnc(C)c(=O)[nH]1,-0.4,i,-4.7%
CCOc1ccc(C2Nc3cccc4cccc(c34)N2)cc1OC,.,i,0.4%
COC(=O)C(O)(CC(=O)Nc1cc(Cl)ccc1Cl)C(F)(F)F (stereo unspecified),.,i,2.3%

# Gathered by group: the entries above with a COOH group.
SMILES,WNV NS2B-NS3 inh,MT1-MMP reporter,Hsc70
Cc1nn(C(C)CC(=O)O)c(C)c1Br (stereo unspecified),.,i,-0.4%
C=CCN(C(=O)CCC(=O)O)C1CC(=O)N(c2ccc(OC)cc2)C1=O (stereo unspecified),1.24,i,8.3%
COc1ccc(C(=O)Cn2c3ccccc3n3nc(CCC(=O)O)c(=O)nc23)cc1OC,.,i,3.2%

# A portion of the library; the hit share may differ from the screen's.
